rRNA inh HTS: inhibitors of bacterial rRNA selective over humanized ribosomes; E. coli WT GFP vs humanized-ribosome RFP mutants, fluorescence, 24 h; hits give low values; DMSO median 0, no signal -100; GFP signal change (wild-type ribosome), % (concentration not given with the values); actives 1.6% (n = 350,000); AID 720706;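 active means significant combined selectivity score with lowered wild-type GFP, culture density cut under 30%, mutant RFP and density less affected; inactive means any of these conditions unmet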; further: one replicate is shown; some compounds called inactive have numbers as strong as hits
AF4-AF9 inh: blocks AF4 peptide binding to human AF9; P42568; AlphaScreen, biotin-AF4 peptide binding to FLAG-AF9; inhibition, % at 10 µM; actives 0.47% (n = 350,000); AID 651704;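 active means every replicate reaching a set inhibition limit, whatever the replicate mean, cut at about 25% in these data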;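 further: 0% = plate neutral control median and 100% = total signal loss; the record names both 10 and 1 µM as test concentration; the first replicate is given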
Target sequence (P42568 whole entry, looked up): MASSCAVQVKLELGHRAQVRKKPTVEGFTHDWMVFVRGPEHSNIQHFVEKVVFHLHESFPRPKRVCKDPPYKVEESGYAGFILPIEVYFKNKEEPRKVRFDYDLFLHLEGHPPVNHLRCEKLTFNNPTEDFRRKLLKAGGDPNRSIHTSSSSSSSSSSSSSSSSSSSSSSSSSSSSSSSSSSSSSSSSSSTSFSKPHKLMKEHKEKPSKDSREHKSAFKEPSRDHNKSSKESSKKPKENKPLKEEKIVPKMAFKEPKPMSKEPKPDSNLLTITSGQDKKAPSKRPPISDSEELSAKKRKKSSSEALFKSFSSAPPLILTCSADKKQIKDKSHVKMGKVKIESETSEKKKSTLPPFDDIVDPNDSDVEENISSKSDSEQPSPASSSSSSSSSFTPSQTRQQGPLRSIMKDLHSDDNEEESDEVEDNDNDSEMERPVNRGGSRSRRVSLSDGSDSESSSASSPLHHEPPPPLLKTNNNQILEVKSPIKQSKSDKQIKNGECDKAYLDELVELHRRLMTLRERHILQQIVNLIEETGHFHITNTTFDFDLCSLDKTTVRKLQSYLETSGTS
rRNA inh HTS OD600: also measured in rRNA inh HTS; calls as there; OD600 change, %; measured here: OD600 growth;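 optical density of the mix in the first replicate; 0 = DMSO median and -100 = no signal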
rRNA inh HTS RFP: recorded beside rRNA inh HTS, whose call it bears; RFP signal change, %; measured here: RFP humanized mutant strains;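 first replicate; 0 = DMSO median and -100 = no signal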
The depositor's hits bear a star. This is a subset (hit frequency here may not be typical).

SMILES	rRNA inh HTS	rRNA inh HTS OD600	rRNA inh HTS RFP	AF4-AF9 inh
CCNC(=O)[C@@H]1[C@@H](CO)[C@@H]2Cn3c(ccc(-c4ccc(F)cc4)c3=O)[C@H]1N2C(=O)c1ccccn1	3	5	-0.4	-20
C[C@H](CO)N1C[C@H](C)[C@@H](CN(C)Cc2ccccc2)Oc2cc(C#CC3CC3)ccc2S1(=O)=O	-4	-3	3.8	5.1
C/C=C/c1ccc2c(c1)O[C@H](CN(C)Cc1cccc(F)c1)[C@@H](C)CN([C@@H](C)CO)S2(=O)=O	-10	-26	23	5.0
CCCC(=O)Nc1ccc2c(c1)C(=O)N(C)[C@H]1CC[C@@H](CC(=O)NCc3ccccc3)O[C@@H]1CO2	1	-6	3.0	-0.7
C[C@H](CO)N1C[C@H](C)[C@H](CN(C)S(=O)(=O)c2ccc(Cl)cc2)Oc2c(NC(=O)NC3CCCCC3)cccc2C1=O	-5	-13	2.0	1.8
CCCC(=O)N1CCC2(CC1)CN(C(=O)Nc1ccc(F)cc1)[C@@H](CO)c1c2c2ccc(OC)cc2n1C	0	-14	5.5	7.8
CO[C@@H]1CN(C)C(=O)c2ccc(NC(=O)C3CC3)cc2OC[C@H](C)N(Cc2cccnc2)C[C@H]1C	-3	-11	-0.7	-1.9
O=S(=O)(c1ccccc1)N1CCCCN2[C@@H](CO)[C@H](c3ccc(C#Cc4ccccc4)cc3)[C@@H]2C1	2	-3	-1.9	-1.0
C[C@@H]1CN([C@@H](C)CO)S(=O)(=O)c2ccc(-c3cncnc3)cc2O[C@H]1CN(C)C(=O)C1CCCCC1	5	6	-3.4	2.7
C[C@@H]1CN([C@@H](C)CO)S(=O)(=O)c2ccc(-c3ccncc3)cc2O[C@@H]1CN(C)Cc1ccccn1	0	6	-3.5	-2.7
C[C@H]1CCCCO[C@@H](CN(C)Cc2ccccc2)[C@@H](C)CN([C@@H](C)CO)C(=O)c2cc(NS(=O)(=O)c3cccs3)ccc2O1	-1	-5	2.8	7.4
COc1ccc(C#Cc2cnc3c(c2)C(=O)N([C@@H](C)CO)C[C@H](C)[C@H](CN(C)CC2CCOCC2)O3)cc1	4	3	1.0	-2.3
C[C@@H]1CN([C@@H](C)CO)C(=O)Cc2cc(NC(=O)CCCN(C)C)ccc2O[C@H]1CN(C)S(=O)(=O)c1ccc(Cl)cc1	-3	0	-2.4	2.1
CN(C)Cc1cn(CC[C@@H]2CC[C@@H](NS(=O)(=O)c3ccc(-c4ccccc4)cc3)[C@@H](CO)O2)nn1	0	2	4.0	-0.7
Cc1ccc(C(O)c2ncc(-c3cccc4ccccc34)[nH]2)c(C)c1 (configuration not stated)	-11	-31	-0.2	1.2
Cc1noc(C)c1NC(=O)N(C)C[C@@H]1OCCCC[C@H](C)Oc2ccc(NC(=O)c3ccccc3)cc2C(=O)N([C@@H](C)CO)C[C@H]1C	-1	-3	0.3	-2.5
CS(=O)(=O)N1[C@@H](C#N)[C@H](c2ccc(C#Cc3cccc(F)c3)cc2)[C@@H]1CO	-47	-74	-12	-8.1
COc1cccc(CN2CC3(CCN(CC4CC4)CC3)c3c([nH]c4cc(OC)ccc34)[C@H]2CO)c1	2	-9	4.2	3.2
C/C=C/c1ccc2c(c1)O[C@@H](CN(C)C(=O)Nc1ccc(OC)cc1)[C@H](C)CN([C@@H](C)CO)S2(=O)=O	-5	-11	2.4	4.1
Cc1ccc(-c2cnc3c(c2)C(=O)N([C@@H](C)CO)C[C@@H](C)[C@@H](CN(C)C(=O)c2cccnc2)O3)cc1	0	0	-2.9	-1.2
CC(C)(C)NC(=O)C[C@H]1C[C@H](C(=O)N2CCCCC2)[C@@]2(C)c3[nH]c4cc(-c5ccco5)ccc4c3CCN2C1=O	10	4	14	16
COc1ccccc1-c1ccc([C@H]2[C@@H](CO)N(C(=O)c3cccc(F)c3)[C@H]2C#N)cc1	-11	-36	-4.6	-1.4
COc1cccc(-c2ccc3n(c2=O)C[C@H]2[C@H](CO)[C@@H](C(=O)N(C)C)[C@@H]3N2C(=O)c2cnccn2)c1	6	0	0.4	4.6
C/C=C/c1ccc2c(c1)O[C@H](CN(C)C(=O)Nc1cccc(F)c1)[C@H](C)CN([C@H](C)CO)S2(=O)=O	0	-23	-0.4	4.9
CO[C@@H]1CN(C)C(=O)c2cc(NS(C)(=O)=O)ccc2OC[C@H](C)N(C(=O)c2ccc3c(c2)OCO3)C[C@H]1C	1	-6	2.0	-1.6
O=C(O)[C@@H]1[C@@H](CO)[C@@H]2Cn3c(ccc(-c4cncnc4)c3=O)[C@@H]2N1C(=O)C1CCCCC1	-1	11	0.4	-1.2
CCC(=O)N1CC[C@@H]2[C@H](CO)Nc3ccc(C#Cc4ccc(F)cc4)cc3[C@@H]21	-14	-45	21	0.2
Cc1ccc(Cn2c(C)c(C(=O)NCC(C)C)sc2=O)cc1	5	4	-2.5	-27
CC(C)NC(=O)Nc1ccc2c(c1)C(=O)N([C@@H](C)CO)C[C@@H](C)[C@@H](CN(C)S(=O)(=O)c1ccc(Cl)cc1)OCCCC[C@H](C)O2	-2	-2	-0.1	-0.3
CCCNC(=O)N(C)C[C@H]1Oc2ncc(C#CCC3CCCC3)cc2C(=O)N([C@H](C)CO)C[C@@H]1C	0	-24	4.0	2.0

A second format for part of the listing above:
Values run as follows: rRNA inh HTS	rRNA inh HTS OD600	rRNA inh HTS RFP	AF4-AF9 inh
COc1ccc(C#Cc2cnc3c(c2)C(=O)N([C@@H](C)CO)C[C@H](C)[C@H](CN(C)CC2CCOCC2)O3)cc1
 : 4	3	1.0	-2.3
C[C@@H]1CN([C@@H](C)CO)C(=O)Cc2cc(NC(=O)CCCN(C)C)ccc2O[C@H]1CN(C)S(=O)(=O)c1ccc(Cl)cc1
 : -3	0	-2.4	2.1

Going on with the list.
SMILES	rRNA inh HTS	rRNA inh HTS OD600	rRNA inh HTS RFP	AF4-AF9 inh
O=C(C[C@H]1CC[C@@H]2[C@H](COC[C@@H](O)CN2CC2CC2)O1)NCC1CC1	-1	11	1.5	-1.1
CN1C[C@@H]2[C@H](c3ccccc31)[C@@H](CO)N2Cc1ccccc1	1	0	-3.5	1.7
CC(=O)Nc1cc(-c2ccccc2F)cn2c(-c3cccc(C(F)(F)F)c3)cnc12	8	-1	43	2.6
CCOC(=O)N(C)C[C@@H]1OCc2cnnn2CCCC(=O)N([C@@H](C)CO)C[C@H]1C	1	-4	-3.3	0.2
CCCCNC(=O)c1[nH]c(C2CCNCC2)nc1-c1cccc(C(F)(F)F)c1	-3	-14	4.3	9.0
O=C(CC(F)(F)F)N1C[C@H]2[C@@H](c3ccccc31)[C@H](CO)N2C(=O)c1ccncc1	1	4	0.4	-1.5
COc1ccc(NC(=O)N(C)C[C@@H]2Oc3ncc(C#CCC(C)C)cc3C(=O)N([C@H](C)CO)C[C@@H]2C)cc1	0	-4	0.1	-11
CO[C@H]1CN(C)C(=O)c2ccc(NC(=O)C3CC3)cc2OC[C@H](C)N(Cc2nccs2)C[C@@H]1C	-2	-5	-1.6	0.0
CCCNC(=O)N1CC2(CCN(CC3CCCC3)CC2)c2c(n(C)c3cc(OC)ccc23)[C@H]1CO	-2	-3	-2.5	6.6
Cc1ccc(NC(=O)C2(C)CCN2CCc2ccccc2)cc1O (configuration not stated)	15	20	4.7	-3.1
CC(C)NC(=O)N(C)C[C@H]1OCCCC[C@H](C)Oc2ccc(NC(=O)C3CCCCC3)cc2C(=O)N([C@@H](C)CO)C[C@H]1C	-3	-1	-1.0	-2.3
C[C@H](CO)N1C[C@H](C)[C@@H](CN(C)S(=O)(=O)c2ccc(F)cc2)Oc2ccc(NC(=O)Cn3cnnn3)cc2CC1=O	1	9	-0.6	1.0
COc1ccc(NC(=O)Nc2ccc3c(c2)C(=O)N([C@@H](C)CO)C[C@@H](C)[C@@H](CN(C)C(=O)CCCN(C)C)OCCCC[C@H](C)O3)cc1	2	4	-3.1	0.6
CC(C)n1c(=O)c2ccccc2n1C(=O)c1ccccc1	-9	-4	-1.9	-5.9
C[C@@H]1CN([C@H](C)CO)S(=O)(=O)c2ccc(-c3cncnc3)cc2O[C@H]1CN(C)C(=O)CN(C)C	10	11	1.0	-3.0
C[C@H]1CN([C@@H](C)CO)S(=O)(=O)c2ccc(C#Cc3ccncc3)cc2O[C@H]1CN(C)C	11	4	-0.8	-2.3
Cc1noc(C)c1NC(=O)Nc1cccc2c1O[C@@H](CN(C)C(=O)Nc1ccc3c(c1)OCO3)[C@H](C)CN([C@H](C)CO)C2=O	1	11	-2.5	-0.4
C[C@@H]1CN([C@@H](C)CO)C(=O)Cc2cc(NC(=O)NC3CCCCC3)ccc2O[C@H]1CN(C)Cc1ccc(Cl)c(Cl)c1	-1	-5	2.4	4.3
COc1ccc(C(=O)Nc2ccc3c(c2)C(=O)N(C)C[C@@H](OC)[C@H](C)CN(C(C)=O)[C@H](C)CO3)cc1	0	2	-2.1	0.8
O=C(Cc1ccncc1)NCC[C@H]1CC[C@H](NC(=O)Nc2ccc(Cl)cc2)[C@H](CO)O1	3	-6	0.0	-1.3
C[C@@H]1CN([C@@H](C)CO)C(=O)c2cc(NC(=O)Nc3ccc4c(c3)OCO4)ccc2O[C@H]1CN(C)Cc1ccc(C(F)(F)F)cc1	-7	-17	2.4	6.7
C[C@@H]1CN([C@H](C)CO)C(=O)c2cc(C#Cc3ccccc3)cnc2O[C@H]1CN(C)C(=O)CCN1CCCCC1	5	6	1.5	13
CCCNC(=O)C[C@@H]1CC[C@@H]2[C@H](COc3ccc(NC(=O)c4ccc(C(F)(F)F)cc4)cc3C(=O)N2C)O1	-5	-11	-1.3	2.6
CC(C)[C@H](NC(=O)OC(C)(C)C)c1cc(C(=O)N(C)CCN(C)C)c(N)s1	23	7	3.8	0.6
Cc1ccc(S(=O)(=O)Nc2ccc3c(c2)C(=O)N([C@@H](C)CO)C[C@H](C)[C@H](CN(C)C(=O)NC2CCCCC2)OCCCC[C@@H](C)O3)cc1	0	-7	-1.1	-1.4
C[C@H](CO)N1C[C@H](C)[C@H](CN(C)Cc2ccc(F)cc2)OCc2ccccc2-c2ccccc2C1=O	-4	-4	2.6	6.1
CC(=O)NC(c1cccs1)c1cc(Br)c2cccnc2c1O (configuration not stated)	-28	-37	-12	-0.8
O=C(O)C[C@@H]1CC[C@H](NC(=O)Nc2cc(F)ccc2F)[C@@H](CO)O1	2	-1	-0.8	-2.5
COc1ccc(NC(=O)N(C)C[C@@H]2OCCCC[C@H](C)Oc3ccc(NC(=O)Nc4ccc(C(F)(F)F)cc4)cc3C(=O)N([C@H](C)CO)C[C@@H]2C)cc1	-6	2	-6.6	-2.5
O=C(O)C[C@H]1CC[C@@H]2[C@H](COC[C@@H](O)CN2S(=O)(=O)c2ccc(Oc3ccccc3)cc2)O1	2	-14	3.5	-3.1
C[C@H](CO)N1C[C@H](C)[C@H](CN(C)S(=O)(=O)c2ccccc2)Oc2c(NS(=O)(=O)c3ccc(F)cc3)cccc2C1=O	-3	2	-0.4	-0.2
C[C@H](CO)N1C[C@H](C)[C@@H](CN(C)C(=O)CCC(F)(F)F)OCCCC[C@H](C)Oc2ccc(NC(=O)Nc3ccccc3)cc2C1=O	-1	-10	-0.1	-1.6
COc1cccc(-c2cnc(C(O)c3ccc(C)cc3)[nH]2)c1 (configuration not stated)	2	-1	-1.6	1.7
CCC(c1nnnn1Cc1ccccc1)N1CCN(C/C=C/c2ccccc2)CC1 (configuration not stated)	6	-11	-3.9	5.5
C[C@H]1CN([C@@H](C)CO)C(=O)Cc2cc(NC(=O)c3ccncc3)ccc2O[C@H]1CN(C)C(=O)Nc1ccccc1	2	-1	-2.9	-3.6
N#Cc1cccc(-c2ccc([C@H]3[C@H](CO)N4CCCCN(S(=O)(=O)c5ccccc5)C[C@@H]34)cc2)c1	0	3	3.0	2.0
CC(C)(C)c1nc2ccc(Cl)cn2c1CC1CCCCC1	30	19	0.0	-0.5
C[C@H](CO)N1C[C@H](C)[C@H](CN(C)C(=O)Nc2cccc3ccccc23)OCCCC[C@H](C)Oc2ccc(NC(=O)c3ccncc3)cc2C1=O	2	-11	5.3	0.4
CCCN(C)C[C@H]1Oc2cc(-c3ccc(C#N)cc3)ccc2S(=O)(=O)N([C@@H](C)CO)C[C@H]1C	4	12	-1.3	-1.0
COCCNC(=O)C[C@H]1CC[C@H]2[C@@H](COC[C@H](O)CN2C(=O)c2cc(Cl)cc(Cl)c2)O1	1	2	-1.7	-25
COc1ccc(CNc2ccc(N3CCN(C(C)=O)CC3)cc2)cc1OC	-2	6	7.2	12

5 compounds out of the list, arranged by molecular weight, high to low.
SMILES	rRNA inh HTS	rRNA inh HTS OD600	rRNA inh HTS RFP	AF4-AF9 inh
Cc1ccc(S(=O)(=O)Nc2ccc3c(c2)C(=O)N([C@@H](C)CO)C[C@H](C)[C@H](CN(C)C(=O)NC2CCCCC2)OCCCC[C@@H](C)O3)cc1	0	-7	-1.1	-1.4
C[C@@H]1CN([C@@H](C)CO)C(=O)Cc2cc(NC(=O)CCCN(C)C)ccc2O[C@H]1CN(C)S(=O)(=O)c1ccc(Cl)cc1	-3	0	-2.4	2.1
CO[C@@H]1CN(C)C(=O)c2cc(NS(C)(=O)=O)ccc2OC[C@H](C)N(C(=O)c2ccc3c(c2)OCO3)C[C@H]1C	1	-6	2.0	-1.6
C[C@@H]1CN([C@@H](C)CO)S(=O)(=O)c2ccc(-c3cncnc3)cc2O[C@H]1CN(C)C(=O)C1CCCCC1	5	6	-3.4	2.7
Cc1ccc(-c2cnc3c(c2)C(=O)N([C@@H](C)CO)C[C@@H](C)[C@@H](CN(C)C(=O)c2cccnc2)O3)cc1	0	0	-2.9	-1.2

Screening results from PubChem.
